# UCH37 DUB inh – blocks the human deubiquitinase UCH37. purified proteasome/UCH37, Ub-AMC cleavage fluorescence. hit rate 0.33% among 330,000. inhibition, % (concentration not given with the values). AID 588478. Q9Y5K5;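 active = mean of two replicates above 20%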;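 also: 0% = compound-free wells with enzyme and 100% = wells lacking proteasome; stock transfer was 100 nL into about 20 µL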
#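 Material: Human UCH37 enzyme supplied as purified proteasome complex | Schedule: 30 min preincubation with enzyme, 25 min cleavage at room temperature | Detection: AMC fluorescence 355/460 nm | Measure: % inhibition of Ub-AMC cleavage fluorescence | Controls: Wells without proteasome as full block, compound-free enzyme plus substrate as uninhibited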
# B2AR ag – human beta-2 adrenergic receptor agonism by FAP. response, % (concentration not given with the values). hit rate 0.43% among 340,000. Am2.2-beta2AR cells, FAP receptor internalization, flow cytometry; reference of the scale not given here. AID 504454. P07550;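 active = response above a set limit, near 3 SD of response in nonfluorescent compounds, cut at about 42% in these data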;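 also: stock transfer was 100 nL into about 11 µL; a reference agonist was the positive control; negative values mostly stem from fluorescent compounds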
# Target sequence (P07550 whole entry, looked up): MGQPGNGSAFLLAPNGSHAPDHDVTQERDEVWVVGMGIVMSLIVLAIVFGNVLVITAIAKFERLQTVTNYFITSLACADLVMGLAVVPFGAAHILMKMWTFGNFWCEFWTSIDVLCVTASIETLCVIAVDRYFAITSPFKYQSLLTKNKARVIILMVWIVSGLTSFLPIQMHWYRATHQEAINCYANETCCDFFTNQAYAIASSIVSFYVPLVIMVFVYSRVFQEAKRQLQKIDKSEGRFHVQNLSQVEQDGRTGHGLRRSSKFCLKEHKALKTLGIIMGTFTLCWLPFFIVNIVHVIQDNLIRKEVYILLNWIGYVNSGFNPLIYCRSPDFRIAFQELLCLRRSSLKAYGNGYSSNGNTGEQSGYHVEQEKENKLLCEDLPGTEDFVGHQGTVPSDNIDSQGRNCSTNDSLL
# HNF4A DNA FP – change in binding of human HNF4 alpha to DNA; P41235; HNF4a-FITC DNA binding, fluorescence polarization, 1 h; activity change, % at 10 µM; hit rate 0.3% among 360,000; AID 1224865; in the data active = activity change above about 30%, passing the limit was not always enough;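 also: controls were the assay level and a saturating level of protein; the project sought stronger binding though the title names inhibitors; some compounds called inactive have numbers as strong as hits; positive values seem to mean higher polarization but the record does not say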
# FGF22 binding – FGF22 (human) thermal shift binding; Q9HCT0; recombinant FGF22 thermal shift, SYPRO orange fluorescence; percent of sucrose octasulfate shift, DMSO zero; calls only at 9.99 µM; hit rate 1.5% among 340,000;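 active = melting point raised past a set limit in the mean and every replicate; three in four hits are not shown here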
# Target sequence (Q9HCT0 whole entry, looked up): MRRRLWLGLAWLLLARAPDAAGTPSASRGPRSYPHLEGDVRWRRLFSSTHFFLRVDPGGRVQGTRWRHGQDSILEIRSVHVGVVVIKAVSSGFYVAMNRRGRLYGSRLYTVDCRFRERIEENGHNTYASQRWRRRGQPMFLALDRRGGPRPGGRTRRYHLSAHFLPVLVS
# Ecoli growth – E. coli growth inhibition; Escherichia coli growth, OD600, 23 h; active compounds read low; OD600 absorbance (no concentration beside the values); hit rate 0.21% among 330,000; AID 1053175;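 active = OD600 absorbance below the run mean of sample wells minus 3.6 SD, in any replicate, cut at about 0.56 in these data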;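 also: stock transfer was 300 nL into about 60 µL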
# Ecoli rRNA inh – inhibits bacterial ribosomal RNA function over humanized ribosomes; E. coli WT GFP vs humanized-ribosome RFP mutants, fluorescence, 24 h; active compounds read low; DMSO median 0, no signal -100; GFP signal change (wild-type ribosome), % (no concentration beside the values); hit rate 1.6% among 350,000; AID 720706;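 active = significant combined selectivity score with lowered wild-type GFP, culture density cut under 30%, mutant RFP and density less affected; inactive = any of these conditions unmet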; also: one replicate is shown; some compounds called inactive have numbers as strong as hits
# ALR inh – blocks human ALR sulfhydryl oxidase activity. AID 485317. hit rate 3.8% among 290,000. purified ALR, DTT oxidation, H2O2 HRP-luminol luminescence. P55789. inhibition, % (concentration not given with the values);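 active = mean and each replicate at 75% or more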;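 also: stock transfer was 7.5 nL into about 7.5 µL; 0% = neutral wells and 100% = wells with inactivated enzyme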
# Target sequence (P55789 whole entry, looked up): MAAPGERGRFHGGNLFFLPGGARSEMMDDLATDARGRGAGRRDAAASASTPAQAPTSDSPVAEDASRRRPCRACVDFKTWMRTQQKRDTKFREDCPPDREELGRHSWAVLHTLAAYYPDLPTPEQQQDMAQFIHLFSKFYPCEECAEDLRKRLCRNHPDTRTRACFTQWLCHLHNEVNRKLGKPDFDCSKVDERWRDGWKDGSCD
# Ecoli rRNA inh OD600 – also measured in Ecoli rRNA inh; calls as there; OD600 change, %; measured here: OD600 growth;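 optical density of the mix in the first replicate; 0 = DMSO median and -100 = no signal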
# Ecoli rRNA inh RFP – recorded beside Ecoli rRNA inh, whose call it bears; RFP signal change, %; measured here: RFP humanized mutant strains;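 first replicate; 0 = DMSO median and -100 = no signal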
# * marks the source's active call; other numbers are inactive results; i = inactive; · = not tested or not shown; & = joins results of further samples. Some of the compounds tested (hit frequency here may not be typical).
# Start of the listing, in advance (four entries):
molecule,UCH37 DUB inh,B2AR ag,HNF4A DNA FP,FGF22 binding,Ecoli growth,Ecoli rRNA inh,Ecoli rRNA inh OD600,Ecoli rRNA inh RFP,ALR inh
O=C(NCc1cccc(C(F)(F)F)c1)c1ccc2sc([C@@H]3O[C@H](CO)[C@@H](O)[C@H]3O)nc2c1,·,·,3.4,i,·,2,-16,36,·
COc1ccccc1N(C)S(=O)(=O)c1ccc(C(=O)Nc2ccncc2)cc1,1.6,4,-0.1,i,0.68,-17,-19,-1.0,-4
C/C=C/c1cccc(-c2nc(C(=O)N3CCCCC3)cc3c2[C@H](CCO)N(C(=O)NC(C)C)C3)c1,·,·,1.4,i,·,-7&-2,-10&10,-0.3&-1.9,·
CCOC1=C2[C@@H](CN(S(=O)(=O)c3ccc(C)cc3)[C@H]2c2ccc(Cl)cc2)[C@H]2C(=O)N(c3ccccc3)C(=O)[C@H]2C1,·,·,0.4,i,·,10,9,-0.8,·

# The list itself, previewed entries included:
molecule,UCH37 DUB inh,B2AR ag,HNF4A DNA FP,FGF22 binding,Ecoli growth,Ecoli rRNA inh,Ecoli rRNA inh OD600,Ecoli rRNA inh RFP,ALR inh
O=C(NCc1cccc(C(F)(F)F)c1)c1ccc2sc([C@@H]3O[C@H](CO)[C@@H](O)[C@H]3O)nc2c1,·,·,3.4,i,·,2,-16,36,·
COc1ccccc1N(C)S(=O)(=O)c1ccc(C(=O)Nc2ccncc2)cc1,1.6,4,-0.1,i,0.68,-17,-19,-1.0,-4
C/C=C/c1cccc(-c2nc(C(=O)N3CCCCC3)cc3c2[C@H](CCO)N(C(=O)NC(C)C)C3)c1,·,·,1.4,i,·,-7&-2,-10&10,-0.3&-1.9,·
CCOC1=C2[C@@H](CN(S(=O)(=O)c3ccc(C)cc3)[C@H]2c2ccc(Cl)cc2)[C@H]2C(=O)N(c3ccccc3)C(=O)[C@H]2C1,·,·,0.4,i,·,10,9,-0.8,·
O=c1[nH]c2ccc(Cl)cc2c(=O)n1Cc1ccco1,0.3,-2,-3.2,·,0.81,·,·,·,-3
CCc1ccc(OCC(O)CN2CCN(CCO)CC2)cc1 (stereo unspecified),-0.5,6,-0.5,i,0.66,6,6,0.0,-12
O=C(O)c1ccc(CNC(=O)c2ccc(Br)o2)cc1,-0.2,-3,1.9,i,0.71,7,-7,-3.8,0
COc1cccc(C2=NOC(C(=O)NCCCn3ccnc3)C2)c1 (stereo unspecified),2.4,4,5.1,·,0.67,·,·,·,-21
CCOC(=O)C(Cc1ccccc1)C(=O)Nc1nccs1 (stereo unspecified),1.2,10,1.6,·,0.75,·,·,·,-2
CC1CC(C)CN(S(=O)(=O)c2ccc(NC(=O)[C@@H]3CCCN3C(=O)c3cccs3)cc2)C1 (stereo partly specified),1.8,4,3.9,i,0.66,16,-1,-0.8,-1
COc1ccc(CC(=O)OCC(=O)NCc2ccccc2Cl)cc1OC,1.9,15,0.2,i,0.73,·,·,·,3
O=S1(=O)NC2CCCCCN2c2ccc(F)cc21 (stereo unspecified),-27,7,-0.4,·,0.71,·,·,·,2
O=C(Nc1ccc(F)c(Cl)c1)Nc1nnc([C@H]2C[C@H](O)[C@@H](CO)O2)s1,·,·,3.1,i,·,-10,3,-2.5,·
CCOc1ccc(-c2cc(C(=O)NCc3ccc(F)cc3)[nH]n2)c(C)c1,·,·,0.7,i,·,2,13,-0.9,·
O=C(O)c1cc2c(cc1NC(=O)c1ccccc1C(F)(F)F)OCCCO2,6.6,2,-0.3,i,0.69,1,-1,0.6,3
COc1ccccc1/C=C(/C(=O)OCC(=O)Nc1cc(C)ccc1C)c1ccccc1,1.3,1,0.9,i,0.68,2,-9,-0.6,·
COc1cccc(/C=N/NC(=O)c2c(-c3ccccc3)noc2C)c1O,·,2,0.9,·,·,·,·,·,45
COc1ccc(NC2CCCN(C(=O)CCC(=O)c3ccc(F)cc3)C2)cc1 (stereo unspecified),1.3,-2,2.3,i,0.7,-1,-5,-0.7,99*
Cc1ccc(Nc2c3c(nc4ncnn24)CC(C)CC3)cc1 (stereo unspecified),3.5,-11,-1.3,·,0.67,·,·,·,4
CN(C)CCC1(C2=CCCC2)CC/C(=C/c2ccc(Cl)cc2)C1=O (stereo unspecified),·,-3,1.9,i,·,-58,-82,-18,·
COC(=O)c1ccccc1NC(=O)CSc1nnc(-c2cccnc2)o1,2.1,3,-0.7,i,0.68,4,8,-2.1,0
OCCCNc1c2c(nc3cc(-c4ccc(Cl)cc4)nn13)CCC2,-13,-8,5.8,i,0.63,6,2,-2.2,-10
COc1ccccc1OCCC(=O)N1CCN(c2ccccc2OC)CC1,3.0,12,2.0,i,0.68,-4,-3,1.3,82*
CCOC(=O)C1CCN(C(=O)CN(Cc2ccc(Cl)cc2)S(C)(=O)=O)CC1,1.9,-2,-1.1,·,0.73,·,·,·,1
O=C(NCCCn1ccnc1)c1ccccc1NS(=O)(=O)c1ccc(F)c(F)c1,-0.5,-1,-0.1,·,0.72,·,·,·,68
CC(C)(C)OC(=O)N1CCC(NC(=O)c2[nH]cnc2C(=O)Nc2cccc(Cl)c2)CC1,2.4,-1,-0.4,i,0.81,7,2,-6.5,-2
O=C(NCCN1CCN(c2cccc(Cl)c2)CC1)C1CCCN(S(=O)(=O)c2cnc[nH]2)C1 (stereo unspecified),2.4,8,1.0,i,0.73,1,3,-0.1,96*
CC(C)C(=O)NC(C)C(c1cccs1)N1CCN(C)CC1 (stereo unspecified),4.4,2,1.9,i,0.71,11,8,-1.1,-4
CN1CC=C2C(C#N)=C(N)C(C#N)(C#N)[C@H](c3cccc(Cl)c3)C2C1 (stereo partly specified),-27,6,-18,·,0.73,·,·,·,3
Cc1ccccc1-c1nc(CS(=O)CC(=O)NCCCN(C)c2ccccc2)c(C)o1 (stereo unspecified),0.4,-8,5.5,·,0.72,-32,-47,19,99*
CC(=O)c1ccc(NC(=O)CCn2c(=O)oc3ccccc32)cc1,2.0,-3,-5.3,·,0.68,·,·,·,-4
CC(=O)N/C(=C\c1ccccc1)C(=O)OC(C)C(=O)NCc1ccccc1 (stereo unspecified),3.4,1,-1.9,i,0.67,3,4,-1.1,-10
COC(=O)c1ccc(/C=N/OCC(=O)NC2CCCCCCC2)cc1,·,0,0.9,·,·,·,·,·,-4
COc1cccc(NC(=S)N2CCC(C(=O)c3ccc(F)cc3)CC2)c1,·,-1,-5.7,i,·,-6,-11,0.5,·
CC12CCC(=O)C=C1CCC1C2CCC2(C)C1CC1C3C(=O)N(Cc4ccccc4)C(=O)C3CC(=O)C12 (stereo unspecified),4.1,4,-1.1,i,0.67,-13,-15,-0.4,·
N#CCC(=O)N/N=C/c1cn(Cc2ccccc2C#N)c2ccccc12,·,6,1.3,i,·,3,5,-0.4,-7

# Next section
# Every second line gives: UCH37 DUB inh | B2AR ag | HNF4A DNA FP | FGF22 binding | Ecoli growth | Ecoli rRNA inh | Ecoli rRNA inh OD600 | Ecoli rRNA inh RFP | ALR inh
COCCCNC(=O)COc1ccc(S(=O)(=O)Nc2ccccc2)cc1
→ 1.3 | 2 | -2.4 | · | 0.77 | · | · | · | -26
CCc1ccc(C(=O)CN2C(=O)NC3(CCCCCC3)C2=O)cc1
→ 5.2 | 4 | -2.2 | i | 0.69 | 9 | 5 | 4.3 | ·
COc1ccc(OC)c(-n2cnc3cc(C(=O)O)ccc32)c1
→ 5.6 | 1 | 1.8 | · | 0.78 | · | · | · | 2
O=C(CN1C(=O)COc2ccccc21)N1CCc2ccccc2C1
→ 3.5 | 4 | -2.6 | · | 0.67 | · | · | · | -9
COc1ccc(C(=O)NCc2nc3ccccc3[nH]2)cc1OC
→ 4.0 | 6 | 4.5 | i | 0.71 | 1 | 2 | -9.0 | 1
CC(SCC(=O)NC12CC3CC(CC(C3)C1)C2)C(=O)O (stereo unspecified)
→ 0.4 | 3 | 3.1 | i | 0.68 | 7 | 6 | 0.3 | -3
N#Cc1ccc(OCC(=O)NC2CCCCCC2)cc1
→ 0.2 | -1 | 2.2 | i | 0.62 | -7 | -2 | -3.6 | -2
CCn1c(SCc2ccc(F)cc2)nc2ccccc2c1=O
→ 2.1 | 6 | 16 | i | 0.66 | -8 | -28 | -6.4 | ·
CC1CCCC(C)N1C(=O)COC(=O)c1cc([N+](=O)[O-])ccc1N1CCOCC1 (stereo unspecified)
→ · | -4 | -2.7 | i | · | -5 | 0 | -2.0 | -6
COc1ccc(-c2c(-c3ccccc3OC)oc3ccccc23)cn1
→ 0.9 | 0 | -0.1 | i | 0.69 | -4 | -11 | -4.8 | -13
N#Cc1ccc(C(=O)NC(=S)N2CCN(C=O)CC2)cc1
→ 1.4 | -1 | -2.2 | i | 0.66 | 5 | 8 | -1.3 | ·
CCCCCCCCOC(=O)C1=C(C)Nc2nnnn2C1c1cccs1 (stereo unspecified)
→ 1.8 | 8 | -2.0 | · | 0.69 | · | · | · | ·
CN(CC(=O)Nc1cccc(F)c1)C(=O)c1cccnc1Sc1ccc(Cl)cc1
→ 2.6 | -14 | 0.2 | i | 0.66 | -16 | -24 | -3.4 | -2
Fc1ccc(Nc2nnc(-c3ccncc3)s2)cc1Cl
→ · | · | 2.0 | i | · | -15 | -7 | -3.3 | ·
O=C(O)Cn1cc2c(n1)CCCC2
→ -1.8 | 0 | 2.3 | · | 0.69 | · | · | · | ·
N/C(=N\OS(=O)(=O)c1ccccc1)c1ccncc1
→ 0.6 | -1 | -4.3 | · | · | · | · | · | ·
CN(Cc1ccccc1)C(=O)CN1C(=O)COc2ccc(S(=O)(=O)N3CCCC3)cc21
→ 1.2 | -10 | 0.5 | i | 0.64 | 1 | 2 | 0.3 | -5
CCN(Cc1ccc2c(c1)OCCO2)S(=O)(=O)c1ccc(NC(C)=O)cc1
→ 1.0 | -5 | -3.6 | i | 0.68 | -4 | -8 | 12 | -1
CCC(CC)C(=O)Nc1cc(C(=O)NCCc2ccccc2)ccc1Cl
→ 0.3 | 11 | -0.5 | · | 0.61 | · | · | · | -4
O=C(Nc1cccc2cccnc12)c1cccc(N2C(=O)CCC2=O)c1
→ 6.7 | 0 | -2.3 | · | 0.7 | · | · | · | -25
COC(=O)C(NC(C)=O)(Nc1nc(C)cs1)C(F)(F)F (stereo unspecified)
→ 3.7 | -3 | 0.7 | · | 0.74 | · | · | · | 2
Cc1ccc(/C=N/n2c(-c3ccncc3)n[nH]c2=S)cc1
→ · | 7 | 1.7 | i | · | 7 | 1 | 3.2 | ·
COc1cc(=O)n2c(n1)SCCC2
→ 6.6 | 8 | 5.9 | · | 0.75 | · | · | · | 4
O=C(NCc1ccccn1)c1ccc(Cn2cc(Br)cn2)o1
→ 3.1 | -5 | -3.0 | · | 0.68 | · | · | · | -1
Cc1cc(C)c2nc(N(CCCN(C)C)C(=O)c3ccc4c(c3)OCCO4)sc2c1
→ 2.6 | 19 | 1.8 | i | 0.59 | -28* | -19* | 8.6* | -16
CCCCn1nnnc1NCc1ccc(OC)c(OC)c1
→ 2.6 | 6 | 1.6 | i | 0.63 | -4 | -5 | 5.1 | -1
O=C(CC1SC(N2CCCC2)=NC1=O)Nc1ccc(C(=O)N2CCN(c3cccc(Cl)c3)CC2)cc1 (stereo unspecified)
→ -1.0 | 1 | -2.4 | i | 0.71 | 3 | -14 | 11 | -12
